CtBP-E1A inh = CtBP/E1A binding inhibition; AlphaScreen GST-E1A/His-CtBP binding, 1536-well; active compounds read low; control for the full effect not named in the record; activity change, % (no concentration beside the values); 340,000 tested, 0.49% active; in the data active means activity change below about -65%; inconclusive means about -30% to -65%; inactive means above about -30%; further: on the % scale 0 is the no-effect control and ±100 the full control effect
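In 5 uL wells, 23 nL compound meets equimolar GST-E1A and His-CtBP (5X stock 125 nM each) for 2 h, 37 °C. Beads (5X, 50 ug/mL) then 1 h, 37 °C, dark.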
Six1-Eya2 inh = Six1/Eya2 interaction inhibition; Q15475+O00167; 360,000 tested, 0.56% active; activity change, % (test concentration not listed); AlphaScreen GST-Six1/His-Eya2 binding, biochemical; active compounds read low; control for the full effect not named in the record; AID 651725; in the data active = activity change below about -65%; inconclusive = about -30% to -65%; inactive = above about -30%; further: on the % scale 0 is the no-effect control and ±100 the full control effect
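Compounds are tested against tagged Six1 and Eya2 proteins bridged by glutathione donor and nickel acceptor beads; after a one-hour incubation at 37 °C without light, AlphaScreen emission is recorded.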
D2 potentiator = potentiates the human D2 dopamine receptor allosterically; P14416; potentiation, % (concentration not given with the values); 360,000 tested, 0.23% active; DiscoveRx D2 beta-arrestin cells, luminescence, 90 min; 100% = 57 uM dopamine signal; active = potentiation of 50% or more; inconclusive = 30% to 50%; inactive = 30% or less;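 further: compound concentration not given in the record; tested on top of an EC20 dose of dopamine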
Target sequence (P14416 whole entry, looked up): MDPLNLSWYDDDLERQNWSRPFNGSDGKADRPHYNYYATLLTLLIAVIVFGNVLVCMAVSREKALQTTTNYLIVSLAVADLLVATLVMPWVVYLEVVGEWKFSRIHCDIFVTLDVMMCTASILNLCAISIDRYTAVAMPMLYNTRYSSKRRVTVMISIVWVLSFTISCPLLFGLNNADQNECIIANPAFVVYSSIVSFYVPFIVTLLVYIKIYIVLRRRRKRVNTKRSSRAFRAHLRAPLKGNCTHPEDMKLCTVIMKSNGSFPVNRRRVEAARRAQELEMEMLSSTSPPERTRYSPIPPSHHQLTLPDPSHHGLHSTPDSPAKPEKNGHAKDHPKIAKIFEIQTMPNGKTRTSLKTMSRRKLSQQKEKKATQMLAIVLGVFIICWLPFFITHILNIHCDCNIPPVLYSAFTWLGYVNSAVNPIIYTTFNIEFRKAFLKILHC
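D2 cells co-treated with compound plus 50 nM dopamine (EC20) for 90 min at 37 deg C to detect potentiation. Beta-arrestin recruitment was read as enzyme-fragment luminescence after 1 h at ambient temperature. Full response was set by 57 uM dopamine.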
PINK1 expr mod = PINK1 expression modulation; 410,000 tested, 0.2% active; Potency, µM (doses to about 76.6 µM), without a hit: at the top dose activation (PINK1 increase), usual class: activators; PINK1 immunofluorescence, high-content cytometry, 24 h; active = well fitted activation curve with a large enough effect; inconclusive = small, poorly fitted or top-dose-only effect; inactive = flat fitted curve, though single readings scatter; cell line not stated here;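 further: potency means the concentration at half of the fitted maximal effect; % of control where 0% means no effect; nearly all actives have a fitted effect of over 65% in size; a mitochondrial uncoupler was the plate control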
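PINK1 protein, normally rapidly degraded, was detected by immunofluorescence after 24 hour compound treatment of a stable cell line. Titration data (5 concentrations) came from laser-scanning cytometry, with CCCP-treated wells as controls.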
D2 agonist = human D2 receptor agonism in beta-arrestin assay; activation, % (concentration not given with the values); DiscoveRx PathHunter D2 beta-arrestin, luminescence, 90 min; 100% = 57 uM dopamine signal; 360,000 tested, 0.084% active; P14416; in the data active = activation above about 40%; inconclusive = about 15% to 40%; inactive = below about 15%; further: compound concentration not given in the record; the text of the record calls up to 30% inactive
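DiscoveRx PathHunter D2 beta-arrestin cells (2,100/well) attached overnight, then compound-stimulated 90 min at 37 C in HBSS/10 mM HEPES/0.1% Tween-20 buffer; beta-galactosidase complementation read by luminescence after 1 h at ambient temperature. Dopamine 57 uM final (EC100) as control.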
TRPML1 agonist = agonists of human TRPML1 channel | Q9GZU1 | TRPML1-expressing cells, Ca2+ dye fluorescence, FDSS; host cell line not named in the record; reference of the full effect not given here | activation, % (concentration not given with the values) | 410,000 tested, 0.12% active | AID 624414; in the data active = activation above about 50%; inconclusive = about 30% to 50%; inactive = below about 30%; further: 0% is about no effect; the text of the record puts the active cut at 80%
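Tetracycline-induced TRPML1-DL cells are seeded and incubated overnight before loading with a no-wash Ca2+ dye and quencher. Agonist activity is taken from the 110 s fluorescence read following compound pin-transfer on an FDSS, before EC80 54-4 challenge.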
An asterisk follows results filed as active; ? = inconclusive.

SMILES | CtBP-E1A inh | Six1-Eya2 inh | D2 potentiator | PINK1 expr mod | D2 agonist | TRPML1 agonist
O=P(Nc1cccnc1)(Oc1ccccc1Cl)Oc1ccccc1Cl | 2 | -7 | 17 | 1.9% | -3.2 | 1.8
CCOC(=O)C(O)(c1ccc(N=Cc2ccccc2O)c(C)c1)C(F)(F)F (stereo unspecified) | -1 | 3 | -2 | -1.0% | -5.2 | 2.5
O=C(N1CCOCC1)N1CCN(C(c2ccccc2)c2ccccc2)CC1 | 5 | 2 | 12 | ? | -1.6 | 1.1
Cc1oc(-c2ccc(Cl)cc2)nc1CS(=O)CC(=O)N1CCC2(CC1)OCCO2 (stereo unspecified) | 0 | -8 | -5 | -1.9% | -1.8 | 1.5
Cc1c(C=C2C(=O)NC(=O)NC2=O)c(=O)n(-c2ccccc2)n1C | -1 | 1 | -5 | -0.6% | -3.7 | -0.7

Just TRPML1 agonist (two entries from above):
molecule	TRPML1 agonist
CCOC(=O)C(O)(c1ccc(N=Cc2ccccc2O)c(C)c1)C(F)(F)F (stereo unspecified)	2.5
O=C(N1CCOCC1)N1CCN(C(c2ccccc2)c2ccccc2)CC1	1.1

An excerpt from above in order of length of the SMILES, rising:
SMILES | CtBP-E1A inh | Six1-Eya2 inh | D2 potentiator | PINK1 expr mod | D2 agonist | TRPML1 agonist
Cc1c(C=C2C(=O)NC(=O)NC2=O)c(=O)n(-c2ccccc2)n1C | -1 | 1 | -5 | -0.6% | -3.7 | -0.7
CCOC(=O)C(O)(c1ccc(N=Cc2ccccc2O)c(C)c1)C(F)(F)F (stereo unspecified) | -1 | 3 | -2 | -1.0% | -5.2 | 2.5
Cc1oc(-c2ccc(Cl)cc2)nc1CS(=O)CC(=O)N1CCC2(CC1)OCCO2 (stereo unspecified) | 0 | -8 | -5 | -1.9% | -1.8 | 1.5

Quoted at random: 2 entries already listed.
SMILES | CtBP-E1A inh | Six1-Eya2 inh | D2 potentiator | PINK1 expr mod | D2 agonist | TRPML1 agonist
O=C(N1CCOCC1)N1CCN(C(c2ccccc2)c2ccccc2)CC1 | 5 | 2 | 12 | ? | -1.6 | 1.1
Cc1c(C=C2C(=O)NC(=O)NC2=O)c(=O)n(-c2ccccc2)n1C | -1 | 1 | -5 | -0.6% | -3.7 | -0.7

High-throughput results deposited in PubChem BioAssay by National Center for Advancing Translational Sciences (NCATS).

Only part of the results is shown; rates above refer to the full screens.
